MenB inh: blocks the Mycobacterium tuberculosis MenB enzyme | P9WNP5 | MenB enzyme assay, absorbance read-out; some hits fall short of the stated cut | inhibition, %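 (about 12 µg/mL by stock and volumes)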 | actives 0.43% (n = 100,000) | AID 540299;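 active means mean of two replicates above 30%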;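 further: 0% = no compound and 100% = wells with inactive enzyme; the first replicate is given; strong numbers were not always called active; inactives centre near -10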
Target sequence (P9WNP5 whole entry, looked up): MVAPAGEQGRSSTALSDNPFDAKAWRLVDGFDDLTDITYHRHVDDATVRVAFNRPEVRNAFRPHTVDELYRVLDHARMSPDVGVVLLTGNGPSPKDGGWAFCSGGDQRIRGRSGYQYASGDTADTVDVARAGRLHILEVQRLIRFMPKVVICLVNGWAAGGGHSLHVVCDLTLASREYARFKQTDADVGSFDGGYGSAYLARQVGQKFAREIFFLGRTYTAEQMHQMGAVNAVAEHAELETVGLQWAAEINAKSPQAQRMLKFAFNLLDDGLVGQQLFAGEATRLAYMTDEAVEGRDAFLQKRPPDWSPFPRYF
Polio RdRp inh: poliovirus RNA polymerase inhibition. P03300. poliovirus polymerase elongation, fluorescence polarization; hits give low values. % elongation, % (compound at 16.7 µg/mL). actives 0.66% (n = 150,000); in the data active means % elongation below about 90%; further: some results filed as inactive read as strong as hits
Mtb MbtI inh: blocks the Mycobacterium tuberculosis siderophore enzyme MbtI; P9WFX0; purified MbtI enzyme, fluorescence intensity read-out; inhibition, %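 (about 17 µg/mL by stock and volumes)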; actives 0.89% (n = 100,000); AID 493033;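 active means above 50% in both replicates, above 80% if mildly self-fluorescent; inactive means the rest, strongly fluorescent compounds included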;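 further: 0% = mean of negative and 100% = mean of positive controls; one replicate is shown; some compounds called inactive have numbers as strong as hits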
Target sequence (P9WFX0 whole entry, looked up): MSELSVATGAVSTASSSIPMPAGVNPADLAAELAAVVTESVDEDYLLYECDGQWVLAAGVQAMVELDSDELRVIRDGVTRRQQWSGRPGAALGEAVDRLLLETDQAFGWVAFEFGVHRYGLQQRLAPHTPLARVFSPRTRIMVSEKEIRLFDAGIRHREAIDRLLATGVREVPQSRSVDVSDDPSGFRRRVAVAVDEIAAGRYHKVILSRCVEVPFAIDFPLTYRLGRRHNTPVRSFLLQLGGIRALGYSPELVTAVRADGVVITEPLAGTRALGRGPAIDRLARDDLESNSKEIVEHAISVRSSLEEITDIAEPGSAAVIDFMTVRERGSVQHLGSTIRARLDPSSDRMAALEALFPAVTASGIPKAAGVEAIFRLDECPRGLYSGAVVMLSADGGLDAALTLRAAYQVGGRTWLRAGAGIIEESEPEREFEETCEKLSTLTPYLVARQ
Polio RdRp inh intensity: further read-out of Polio RdRp inh, marked with its call; % elongation; measured here: total intensity read-out; formula for this scale not given here;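 total fluorescence in place of polarization; lower means less elongation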
An asterisk follows results filed as active; i = inactive; . = not tested or not shown. Compounds were not picked by outcome; about 1.8% have a hit in one of these screens.

Short forms – A = MenB inh; B = Polio RdRp inh; C = Polio RdRp inh intensity; D = Mtb MbtI inh
> C/S(=N\S(=O)(=O)c1cccc2nonc12)c1ccc(C(F)(F)F)cn1 (configuration not stated)
  A: 0 | B: 102 | C: 103 | D: -14
> CC(=O)Nc1ccc(S(=O)(=O)NCC2CCC(C(=O)NC(C)c3ccc4c(c3)OCCO4)CC2)cc1 (configuration not stated)
  A: -13 | B: 100 | C: 102 | D: -9
> CC(C)(C)c1ccc(-c2nc3ccccc3s2)cc1
  A: -8 | B: 104 | C: 96 | D: .
> Cn1c(CNS(=O)(=O)c2ccc3c(c2)OCCO3)nnc1SCc1cccnc1
  A: -32 | B: 101 | C: 101 | D: -5
> Cc1nc2ccccc2c(C)c1C(=O)Nc1ccc(Cl)cc1
  A: . | B: 102 | C: 98 | D: 6
> O=S(=O)(c1ccccc1)c1nnn2c1nc(N1CCCC1)c1sccc12
  A: -30 | B: 99 | C: 102 | D: 0
> COC(=O)c1ccc2c(=O)[nH]c(COC(=O)c3cnc(C)cn3)nc2c1
  A: -3 | B: 113 | C: 152 | D: 23
> CCOc1ccc(N=c2scc(-c3ccc4c(c3)NC(=O)CO4)n2C2CC2)cc1
  A: 11 | B: 101 | C: 105 | D: 16
> O=C(CCC(=O)N1CCc2ccccc2C1)c1ccccc1
  A: -61 | B: 104 | C: 104 | D: 9
> Cc1ccc2c(c1)cc(CN(Cc1ccc3c(c1)OCO3)S(=O)(=O)c1ccccc1)c1nnnn12
  A: -4 | B: 100 | C: 101 | D: -2
> CCC(C)NC(=O)c1cc(-c2cccc(OC)c2)no1 (configuration not stated)
  A: 5 | B: 102 | C: 107 | D: 0
> CCCOCC(O)CN1CCCCC1 (configuration not stated)
  A: -15 | B: 99 | C: 104 | D: 0
> Cc1nc2nc(CN)nn2c(C)c1CCC(=O)NCC1CCN(Cc2ccc(F)cc2)CC1
  A: -9 | B: 103 | C: 102 | D: -2
> C[N+]1(Cc2cn3ccccc3n2)CCOCC1
  A: . | B: 101 | C: 101 | D: i
> c1ccc(N2CCN(c3c4c(nc5ncnn35)CCC4)CC2)cc1
  A: 14 | B: 108 | C: 117 | D: -8
> CC1CC2c3cccc(C(=O)O)c3C(=O)N2c2ccc(F)cc21 (configuration not stated)
  A: -15 | B: 102 | C: 106 | D: 50
> C=C(C)CNC(=S)NN
  A: -56 | B: 83* | C: 86* | D: 98*
> CC1SCC(=NOCc2ccccc2)CS1 (configuration not stated)
  A: -7 | B: 105 | C: 107 | D: 7
> CC(Oc1ccc(Br)cc1)C(=O)NN (configuration not stated)
  A: -17 | B: 102 | C: 95 | D: -7
> CC1CN(CCC(=O)Nc2ccc(S(N)(=O)=O)cc2)CC(C)O1 (configuration not stated)
  A: -5 | B: 102 | C: 104 | D: -5
> CCOC(=O)C(C)Nc1n[nH]c(=O)[nH]c1=O (configuration not stated)
  A: -40 | B: 101 | C: 104 | D: -5
> COc1ccc(CN(C(=O)Nc2ccccc2)C2CC2)cc1
  A: -27 | B: 101 | C: 103 | D: -6
> Cc1nn(-c2ccccc2)c2nc(-c3ccccc3)cc(C(=O)N3CCOCC3)c12
  A: -18 | B: 102 | C: 101 | D: -4
> CCn1c(C)cc(/C=C2/NC(=O)N(c3ccccc3)C2=O)c1C
  A: -102 | B: 99 | C: 103 | D: -40
> O=C(COCC(=O)N1CCCC1)N1CCCC1
  A: -8 | B: 99 | C: 104 | D: -19

(list continues)
Short forms – A = MenB inh; B = Polio RdRp inh; C = Polio RdRp inh intensity; D = Mtb MbtI inh
> CCC(=O)c1c(C)oc2ncnc(Nc3ccc(CCO)cc3)c12
  A: -2 | B: 101 | C: 102 | D: -6
> Brc1cccc(CN2CCN(Cc3cccc(Br)c3)CC2)c1
  A: -11 | B: 99 | C: 98 | D: 10
> Cc1cc(OCc2ccc(/C=C(/C#N)S(=O)(=O)c3ccccc3)o2)ccc1Cl
  A: -51 | B: 102 | C: 104 | D: 17
> COc1ccccc1CC(=O)NCC1OCCc2ccccc21 (configuration not stated)
  A: -18 | B: 104 | C: 102 | D: 8
> CC(Oc1ccc(/C=C(/C#N)C(=O)N2CCOCC2)cc1)C(=O)O (configuration not stated)
  A: -12 | B: 101 | C: 100 | D: 12
> CCS(=O)(=O)NCC(c1ccc(N(C)C)cc1)N1CCc2ccccc21 (configuration not stated)
  A: -15 | B: 100 | C: 101 | D: 49
> On1c(-c2cccc(F)c2)nc2c1CCc1nonc1-2
  A: 3 | B: 101 | C: 104 | D: 10
> CCOC(=O)C1C(=O)C=C(c2ccc(C)cc2)CC1c1ccc(CC)cc1 (configuration not stated)
  A: -14 | B: 103 | C: 102 | D: -8
> Cc1nn(-c2ccccc2)c2c1N(C(=O)CCC(=O)NC1CCCCCC1)CCS2
  A: -10 | B: 101 | C: 99 | D: -26
> O=C(COC(=O)c1ccccc1)NCc1ccc2c(c1)OCO2
  A: 4 | B: 103 | C: 106 | D: -2
> Nc1cc(N)nc(SCC(=O)N2c3ccccc3Sc3ccccc32)n1
  A: -9 | B: 104 | C: 107 | D: -10
> N#CCCn1cc(C2CC(c3ccccc3)=NNC2=O)c2ccccc21 (configuration not stated)
  A: -17 | B: 100 | C: 98 | D: -13
> CCOC(=O)NCc1ccc2c(c1)OCO2
  A: 13 | B: 106 | C: 110 | D: 6
> COc1ccc(-c2[nH]nc3oc(=O)cc(C)c23)cc1
  A: -13 | B: 100 | C: 107 | D: 88
> O=C(COC(=O)c1cccc(S(=O)(=O)NCc2ccco2)c1)Nc1ccccc1
  A: 5 | B: 102 | C: 109 | D: -3
> Cc1ccc2c(Sc3ccc(Cl)cc3)c(C(=O)NC(C)c3ccc4c(c3)OCCO4)[nH]c2c1 (configuration not stated)
  A: -6 | B: 105 | C: 109 | D: 4
> O=C(CSc1nc2ccccc2c(=O)n1Cc1ccco1)Nc1ccccc1
  A: 2 | B: 101 | C: 103 | D: -10
> CCCc1cnc(N2CCN(CC(=O)Nc3ccc4c(c3)OCCO4)CC2)nc1
  A: -7 | B: 105 | C: 99 | D: 8
> CCc1ccc(NC(=O)Cc2cn(C)c3ccccc23)cc1
  A: -28 | B: 102 | C: 98 | D: -10
> Cc1cc(C)nc(-n2ncc(Cl)c(Cl)c2=O)n1
  A: 9 | B: 104 | C: 104 | D: -7
> COCC(C)NCc1cccc(Br)c1 (configuration not stated)
  A: -3 | B: 106 | C: 106 | D: .
> O=C(Nc1ccccn1)c1cc2ccccc2o1
  A: -11 | B: 102 | C: 106 | D: .
> Cc1nc2c(C)cccn2c1/C(O)=C1\C(=O)C(=O)N(CCN(C)C)C1c1cccnc1 (configuration not stated)
  A: -85 | B: 101 | C: 103 | D: -10
> O=C(Nc1ccccc1OC(F)F)c1ccccc1
  A: 7 | B: 101 | C: 99 | D: -4
> CC1(C)N=C2C(=[N+]1[O-])CCC/C2=N/O
  A: -19 | B: 98 | C: 103 | D: 4

Next part:
Short forms – A = MenB inh; B = Polio RdRp inh; C = Polio RdRp inh intensity; D = Mtb MbtI inh
> O=C(O)CCCn1cnc2ccccc2c1=O
  A: -41 | B: 101 | C: 108 | D: 2
> CC1CN=C(N(C)C(=O)Nc2cccc(Cl)c2)S1 (configuration not stated)
  A: -5 | B: 98 | C: 102 | D: 10
> CSCc1ccc(C(=O)N2CCN(C(=O)c3ccccc3)CC2)cc1
  A: -15 | B: 100 | C: 94 | D: 3
> O[C@@H]1C2C3CC4C5C3C1C(c1ccccc1)(C42)[C@H]5O (some centres not stated)
  A: 13 | B: 103 | C: 98 | D: 10
> C=CCN=C1SCC(=O)N1S(=O)(=O)c1ccc(C)cc1
  A: -52 | B: 100 | C: 102 | D: 0
> N#CC(C(=O)COc1ccccc1)c1nc2ccccc2[nH]1 (configuration not stated)
  A: . | B: 101 | C: 105 | D: -12
> COc1ccccc1OCC(O)CN (configuration not stated)
  A: -25 | B: 100 | C: 101 | D: -13
> Cc1ccc2c(CN3C(=O)c4ccccc4C3=O)cc(=O)oc2c1
  A: -4 | B: 103 | C: 110 | D: -15
> COc1ccc2oc(=N)c(C(N)=O)cc2c1
  A: -27 | B: 101 | C: 105 | D: -3
> Cc1cc(C)n(-c2nc(NC(C)C)nc(NC(C)(C)C)n2)n1
  A: 7 | B: 100 | C: 100 | D: -22
> CCCCN1C2CCCC1CC(NC(=O)C1CCCCC1)C2 (configuration not stated)
  A: -40 | B: 105 | C: 103 | D: -2
> Cc1ccc(C)c(-n2c(SCc3cn4ccccc4n3)nnc2-c2cc3sccc3n2C)c1
  A: 0 | B: 101 | C: 102 | D: 14
> Cc1ccc(C)n1CC(N)=O
  A: 1 | B: 99 | C: 104 | D: 13
> CC(C)CCNCc1c(C(=O)O)n(Cc2ccccc2)c2ccccc12
  A: -20 | B: 103 | C: 99 | D: 52
> O=C(NCC12CC3CC(CC(C3)C1)C2)c1cc(-c2ccccc2F)no1
  A: -9 | B: 104 | C: 103 | D: -6
> CCCNC(=O)CSc1nnc2n(-c3ccccc3)c(=O)c3ccccc3n12
  A: 6 | B: 102 | C: 106 | D: 109
> Cc1ccc(-c2nn(-c3ccccc3)cc2C(=O)N2CCOCC2)cc1
  A: -8 | B: 107 | C: 111 | D: -7
> CC(C)(C)c1ccc(C(=O)N/C(=C/c2cccs2)C(=O)N2CCOCC2)cc1
  A: . | B: 103 | C: 102 | D: -5
> O=C(O)CCn1c2ccccc2c2cn[nH]c(=O)c21
  A: -5 | B: 105 | C: 121 | D: 29
> On1ccc2c(Br)cncc21
  A: -101 | B: 95 | C: 98 | D: 17
> C/C(=C\C(=O)c1ccc(Cl)cc1)N1CCOCC1
  A: -27 | B: 103 | C: 104 | D: 7
> CCN(Cc1nc2ccccc2c(=O)[nH]1)Cc1nc2cc(OC)c(OC)cc2c(=O)[nH]1
  A: -33 | B: 103 | C: 102 | D: 6
> COc1ccc(CN2C(=O)c3[nH]nc(-c4ccccc4O)c3C2c2ccc(O)cc2)cc1 (configuration not stated)
  A: 13 | B: 102 | C: 102 | D: 11
> O=C(C1=C(O)C(=O)N(CCc2ccccc2)C1c1ccccc1)c1cccs1 (configuration not stated)
  A: -14 | B: 100 | C: 107 | D: .
> CCOC(=O)c1cnn(C(=O)COc2ccc(C(C)(C)C)cc2C(C)(C)C)c1N
  A: -21 | B: 112 | C: 119 | D: -3

Continuation.
Short forms – A = MenB inh; B = Polio RdRp inh; C = Polio RdRp inh intensity; D = Mtb MbtI inh
> CCCC(=O)Oc1ccc2c(C)cc(=O)oc2c1
  A: -10 | B: 109 | C: 111 | D: .
> CCc1ccccc1N(CC(=O)NC)S(C)(=O)=O
  A: 3 | B: 101 | C: 103 | D: -23
> Cn1nnc2c([nH]c3ccccc32)c1=O
  A: -14 | B: 99 | C: 101 | D: -19
> Cn1ncc(C(N)=O)c1N
  A: -13 | B: 99 | C: 105 | D: 2
> CC1(C)C(=O)Nc2ccccc2N1C(=O)COC(=O)c1ccc(S(=O)(=O)N2CCCC2)cc1
  A: -5 | B: 102 | C: 107 | D: 0
> COC(=O)C12CC3(C)CC(C)(CC(C)(C3)C1)C2
  A: 4 | B: 105 | C: 96 | D: -2
> Cc1noc(C)c1Cc1c(C(=O)O)noc1C
  A: -36 | B: 105 | C: 102 | D: -7
> OC(C#CCN1CCOCC1)c1cccs1 (configuration not stated)
  A: 4 | B: 102 | C: 108 | D: -4
> CCOC(=O)N1CCN(C(=O)/C=C/c2c(C)nn(-c3ccc(F)cc3)c2Cl)CC1
  A: 11 | B: 105 | C: 113 | D: -5
> Clc1cccc(/C=N/n2c(-c3cccs3)csc2=NCCN2CCOCC2)c1
  A: -27 | B: 105 | C: 93 | D: 22
> COC(=O)c1sc(=S)n(-c2cccc(C)c2)c1N
  A: -21 | B: 95 | C: 97 | D: 33
> COc1ccc(OC(C)C(=O)Nc2cccc(C)n2)cc1 (configuration not stated)
  A: -39 | B: 101 | C: 98 | D: 2
> COC(=O)c1cc(/C=C/C(=O)N(C(=O)NC2CCCCC2)C2CCCCC2)cn1C
  A: -33 | B: 104 | C: 96 | D: -2
> O=C(CN1C(=O)c2ccccc2C1=O)Nc1ccc2c(c1)OCO2
  A: 3 | B: 98 | C: 102 | D: -2
> CCN1CCN(Cc2cc(Br)c(O)c(OC)c2)CC1
  A: -15 | B: 100 | C: 105 | D: -10
> O=C(Nc1ccccc1)c1ccc(N2C(=O)C3C4C=CC(C4)C3C2=O)cc1 (configuration not stated)
  A: -9 | B: 104 | C: 103 | D: 1
> O=C(COC(=O)c1cc(C(F)(F)F)cc(C(F)(F)F)c1)NCC1CCCO1 (configuration not stated)
  A: . | B: 102 | C: 98 | D: 2
> CC(=O)N1CC(C)Sc2cc(S(=O)(=O)Nc3cccc(Cl)c3)ccc21 (configuration not stated)
  A: -1 | B: 102 | C: 107 | D: -2
> Cc1noc(C)c1C(=O)OC(C)C(=O)Nc1ccc(S(=O)(=O)NC(C)C)cc1 (configuration not stated)
  A: -6 | B: 101 | C: 107 | D: -20
> N#CC(C#N)=C/C=C(\Sc1nnnn1-c1ccccc1)c1ccccc1
  A: -10 | B: 98 | C: 97 | D: 84*
> Cc1ccc(N/N=C/c2c(O)n(-c3ccccc3)c(=O)[nH]c2=O)cc1
  A: -4 | B: 100 | C: 103 | D: -4
> Cc1cc(C)n(C(=O)c2ccc(-c3ccccc3)cc2)n1
  A: -18 | B: 104 | C: 106 | D: .
> COc1ccc(-c2[nH]ncc2C(=O)NCc2ccccc2)cc1
  A: 6 | B: 100 | C: 100 | D: -6
> CC(=O)Nc1ccc(C2=N/C(=C/c3cn(C(C)=O)c4ccccc34)C(=O)O2)cc1
  A: -8 | B: 167 | C: 197 | D: 1
